KCNQ2 pot – potentiators of rat KCNQ2 potassium channel | Potassium voltage-gated channel subfamily KQT member 2 (Rattus norvegicus), O88943 | CHO-K1 KCNQ2, FluxOR thallium flux fluorescence; active compounds read high | B-score at 10 µM | actives 0.54% (n = 310,000);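 active means fluorescence ratio B-score at least 3 SD of library B-scores, with initial fluorescence B-score within 3 SD, cut at about 5.3 in these data; same plate scores as AID 2156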;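 further: B-score of peak minus minimum over baseline fluorescence ratio after K+ and Tl+ stimulus; positive B-score means potentiation of KCNQ2 with more thallium influx and brighter signal; only the inactives scoring about 0 or higher are listed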
Target sequence (O88943 whole entry, looked up): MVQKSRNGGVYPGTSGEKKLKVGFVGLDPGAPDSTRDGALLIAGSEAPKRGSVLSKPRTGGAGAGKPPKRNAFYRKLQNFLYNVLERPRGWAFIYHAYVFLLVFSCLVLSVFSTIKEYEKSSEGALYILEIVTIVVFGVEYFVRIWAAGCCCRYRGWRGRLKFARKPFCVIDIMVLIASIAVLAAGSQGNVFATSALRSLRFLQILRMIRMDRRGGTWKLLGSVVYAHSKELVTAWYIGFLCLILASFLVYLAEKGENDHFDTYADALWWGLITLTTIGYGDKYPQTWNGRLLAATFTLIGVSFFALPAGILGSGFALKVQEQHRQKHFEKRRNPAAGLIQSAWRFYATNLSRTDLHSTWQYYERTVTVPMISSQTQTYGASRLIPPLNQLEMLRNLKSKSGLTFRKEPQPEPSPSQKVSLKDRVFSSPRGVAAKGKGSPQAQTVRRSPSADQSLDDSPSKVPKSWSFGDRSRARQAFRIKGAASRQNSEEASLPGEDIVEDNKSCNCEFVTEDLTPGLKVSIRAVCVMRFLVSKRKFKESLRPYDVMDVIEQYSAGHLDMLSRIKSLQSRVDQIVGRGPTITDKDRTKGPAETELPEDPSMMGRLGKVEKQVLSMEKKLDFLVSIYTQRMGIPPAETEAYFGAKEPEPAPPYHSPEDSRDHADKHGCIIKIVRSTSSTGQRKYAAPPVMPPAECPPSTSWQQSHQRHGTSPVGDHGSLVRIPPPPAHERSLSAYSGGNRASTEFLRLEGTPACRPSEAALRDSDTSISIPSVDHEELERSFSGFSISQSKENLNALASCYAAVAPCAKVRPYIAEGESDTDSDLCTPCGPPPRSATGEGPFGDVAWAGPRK
KCNQ2 pot baseline – further read-out of KCNQ2 pot, marked with its call; B-score; compound at 10 µM; measured here: initial fluorescence intensity artifact check;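 brightness before thallium and not channel activity; 0 = typical well and far values either way flag optical interference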
* hit, by the source's call.

The first four compounds, to show the layout:
SMILES	KCNQ2 pot	KCNQ2 pot baseline
COc1ccc2nc(C(F)(F)C(F)(F)F)c(C#N)c(N)c2c1	0.09	0.74
CCOC(=O)Nc1ccc(S(=O)(=O)NCCCN2CCOCC2)cc1	1.08	-1.77
O=C(Nc1cccc(-n2cnnn2)c1)c1ccncc1	1.98	0.21
COc1ccc(C2SCC(=O)N2C)cc1 (stereo not given)	1.22	0.88

All compounds of this part, from the start:
SMILES	KCNQ2 pot	KCNQ2 pot baseline
COc1ccc2nc(C(F)(F)C(F)(F)F)c(C#N)c(N)c2c1	0.09	0.74
CCOC(=O)Nc1ccc(S(=O)(=O)NCCCN2CCOCC2)cc1	1.08	-1.77
O=C(Nc1cccc(-n2cnnn2)c1)c1ccncc1	1.98	0.21
COc1ccc(C2SCC(=O)N2C)cc1 (stereo not given)	1.22	0.88
COC(=O)C[C@H]1c2cc(F)cc(F)c2S(=O)(=O)N1C1CCN(Cc2ccccc2)CC1	0.77	0.39
COc1ccccc1NC(=S)NC12CN3CN(CN(C3)C1)C2	0.12	0.44
CCOC(=O)N1CCN(C(=O)CCNS(=O)(=O)c2ccc(C)c(C)c2)CC1	0.12	0.66
CN(Cc1ccco1)C(=O)CCc1nc2sc3c(c2c(=O)[nH]1)CCCC3	0.26	0.44
CNc1ccccc1NC(=O)CCn1c(=S)oc2ccccc21	0.18	-1.53
Cc1ccc(-c2c3c(nc4sc(C(N)=O)c(N)c24)CCC3)cc1	0.75	0.35
Cc1c2ccccc2cc(Cc2ccccc2)[n+]1C	0.33	0.76
N/C(=N\OC(=O)c1ccc2ccccc2c1)c1ccccn1	0.77	-1.08
CCN(CC(=O)N1CCOCC1)S(=O)(=O)c1ccccc1	1.39	1.19
Cc1cccc(/C=N/NC(=O)c2cc(Br)ccc2O)n1	2.34	0
NN1C(=O)/C(=C2/Sc3ccccc3N2CCCS(=O)(=O)O)SC1=S	0.14	-0.55
COC(=O)c1ccc(C2/C(=C(/O)c3ccc(Cl)cc3)C(=O)C(=O)N2C2CCS(=O)(=O)C2)cc1 (stereo not given)	0.57	1.83
COc1ccc(OC)c(N=Cc2c(O)c3ccccc3oc2=O)c1	0.13	-1.07
CCOC(=O)C1CCN(S(=O)(=O)c2ccc(OCC(=O)OC)cc2)CC1	0.37	-0.03
O=C(c1ccccc1-c1ncc[nH]1)N1CCCC(Nc2ccc(F)cc2)C1 (stereo not given)	0.23	0.84
O=C(Nc1cccc(S(=O)(=O)NC2=NCCC2)c1)c1cc(-c2ccccn2)nc2ccccc12	1.87	-0.97
COc1ccc(NC(=S)NC(=O)/C=C/c2ccco2)c(OC)c1	0.96	0.76
Cc1cc(OC(C)C(=O)NCc2cccnc2)c2c(C)c(C)c(=O)oc2c1 (stereo not given)	0.75	1.64
O=C(NCc1ccc2c(c1)OCO2)c1ccc(Br)cc1	2.98	0.21
CCN1C(=O)[C@H]2[C@@H](c3ccc(-c4ccc(Cl)c(Cl)c4)cc3)N[C@@](C)(C(=O)OC)[C@H]2C1=O	0.04	-1.1
COCCn1c(-c2ccc(Cl)cc2)nc2oc3cc(OC)ccc3c(=O)c2c1=O	1.17	-0.62
COc1ccc(-c2noc(CN(C(=O)C(C)(C)C)C(C)C)n2)cc1	0.76	-0.29
CCOC(=O)Cc1sc(N)nc1C	1.6	-0.4
COc1ccc(C)cc1NC(=O)NC1CCN(Cc2ccccc2)CC1	0.58	-0.16
O=[N+]([O-])c1ccc(N2CCN(S(=O)(=O)c3ccccc3[N+](=O)[O-])CC2)cc1NCc1cccnc1	1.56	-2.16
COCCSc1ccccc1C(=O)Nc1nccs1	0.42	0.7
O=C(O)c1ccc(NC(=O)C2(c3ccccc3)CCCC2)cc1	0.91	0.65
Cc1cnn(-c2cc(N/N=C/c3ccccc3F)ncn2)c1	0.05	-0.21
Cc1ccc2nc(-c3ccc(NS(C)(=O)=O)cc3)cc(-c3ccccc3)c2c1	1.5	-0.11
O=C(NCc1ccc2c(c1)OCO2)C1CCN(c2nccc(C(F)(F)F)n2)CC1	0.65	0.1
COc1ccc(/C=C2/SC(=O)N(CCCCCC(=O)Nc3ccccc3C(=O)O)C2=S)cc1	1.34	-1.2
Cc1ccc(C)n1-c1ccc(C(=O)NN=C2CCCC2)cc1	0.01	-0.45
COc1cc(NC(=O)Cc2ccccc2OC)cc(OC)c1	1.11	0
CCc1nc(SCC(=O)c2cccc([N+](=O)[O-])c2)n[nH]1	0.04	0.66
Cc1cc(C)c(C#N)c(Oc2ccc(O)cc2)n1	1.72	2.44
COc1cc(/C=N/NC(=O)Cc2ccccc2)cc(OC)c1OC	1.87	2.12
CCCCn1c(N)c(N(Cc2ccccc2OC)C(=O)COc2ccc(C)cc2)c(=O)[nH]c1=O	0.04	1.64
COCc1cccc(NC(=O)Cc2cccc3ccccc23)c1	2.78	0.05
O=C(CNS(=O)(=O)c1ccc(Br)s1)NCc1ccc2c(c1)OCO2	0.68	-0.13
COc1ccc2[nH]c(=O)c(CN(CCN3CCCC3)C(=O)Nc3ccccc3Cl)cc2c1	0.23	-0.62
Cc1cccc2c(SCC(=O)NCC3CCCO3)nc(-c3ccc(F)cc3)nc12 (stereo not given)	0.35	1.21
O=C(N/N=C/c1sc2ccccc2c1O)c1cccc2ccccc12	0.69	3.3
Cc1cc2oc(=O)cc(CN3CCCCC3)c2cc1O	1.35	-0.3
CCn1c(C)nc2cc(C(=O)NNC(=S)Nc3ccccc3)ccc21	1.99	-0.12
CCN(CC)C(=O)c1cn(-c2cccc(OC)c2)c(=O)c2ccccc12	1.27	-0.89
CN(C)[C@@H]1CCC[C@H]1OC(=O)C(c1ccccc1)c1ccccc1	1.14	-1.49
CCCCCCOC(=O)CCn1[nH]c(=O)c2ccccc2c1=O	0.09	-0.48
CC(C)(C)C(=O)Nc1nnc(CC(=O)NCc2ccccc2)s1	2.93	-0.15
COc1ccccc1C(=O)Nc1nnc(SCC(=O)NCC2CCCO2)s1 (stereo not given)	0.48	0.35
COC(=O)/C=C1/SC(=NC(=O)c2ccc(OC)cc2)NC1=O	1.6	-1.08
CC(Sc1nnc(COc2ccc([N+](=O)[O-])cc2)n1-c1ccccc1)C(=O)O (stereo not given)	0.04	-0.08
O=C(COC(=O)c1c(F)cccc1F)Nc1ccccc1OC(F)F	0.27	-0.87
Cc1cc(C)n2nc(C(=O)Nc3ccn(Cc4ccccc4C)n3)cc2n1	0.11	-2.42
COC(=O)c1ccc(OCC(=O)Nc2nn(-c3ccccc3)nc2C(N)=O)cc1	1.41	-0.01
CCOC(=O)Cc1csc(NC(=O)CSc2nc3cccnc3n2CC)n1	0.67	1.99
COc1ccccc1N(CC(=O)NCC1CCCO1)C(=O)CCC(=O)Nc1cc(C)on1 (stereo not given)	1.36	0.95

Going on with the list:
SMILES	KCNQ2 pot	KCNQ2 pot baseline
CN(C(=O)c1cc(S(=O)(=O)N2CCOCC2)cs1)c1ccccc1	0.44	0.87
COc1ccc(C(CC(=O)O)NS(=O)(=O)c2ccc(C)cc2)cc1OC (stereo not given)	0.79	0.28
CCOc1ccc(N2C(=O)Nc3ccccc3C2(O)C(=O)NCc2ccccc2)cc1 (stereo not given)	0.27	-0.01
COc1cc(C(=O)N/N=C(\C)Cc2ccccc2)cc(OC)c1OC	0.03	-0.93
CC(=O)Nc1cccc(NS(=O)(=O)Cc2ccc(Cl)cc2)c1	0.04	-0.09
c1cnc(Oc2ccc(-c3nnco3)cc2)cn1	1.49	-0.68
CN1CCN(C(=O)c2cc(Cl)ccc2NC(=O)c2ccc(Cl)cc2Cl)CC1	1.57	-0.61
Cc1ccc(CNC(=O)/C=C/c2ccc(Br)o2)cc1	2.45	-0.27
CNC(=S)NCc1ccc(OC)cc1	0.74	0.08
CC(=O)Nc1ccc(S(=O)(=O)Nc2nc(C)cc(-n3nc(C)cc3C)n2)cc1	0.04	0.2
Cc1ccc(N2CC(C(N)=O)CC2=O)cc1 (stereo not given)	0.74	0.34
O[C@@H]([C@H](O)[C@H](O)CBr)[C@H](O)CBr	0.62	1.12
CN1CCN(S(=O)(=O)c2cccc(S(=O)(=O)c3ccc(Cl)c(Cl)c3)c2)CC1	1.03	0.95
O=S(=O)(Cc1ccco1)Cc1nc(-c2ccc(Cl)cc2)cs1	0.73	0.63
COc1ccc(C2C(C#N)=C(N)OC3=C2C(=O)CCC3)cc1OC (stereo not given)	1.34	-0.86
CC1CCCC(C)N1CC(C)(C)NS(=O)(=O)c1ccc(Cl)cc1 (stereo not given)	0.12	-0.92
CCC(=O)Nc1cccc(NC(=O)c2cccc([N+](=O)[O-])c2)c1	2.12	-0.74
O=C(NCc1ccco1)C1CC(c2ccc(Cl)c(Cl)c2)=NO1 (stereo not given)	0.06	-0.26
Cc1csc2c(C#N)c(=O)c3c(n12)CCC3	0.04	0.36
COC(=O)c1cc2c(C(F)(F)F)nn(C)c2s1	1.22	1.12
COc1ccc(-c2nnc(SC(C)C(=O)Nc3ccc4c(c3)OCCO4)o2)cc1 (stereo not given)	1.16	-1.96
Cc1cc([N+](=O)[O-])ccc1N=Nc1c(N)[nH]n(-c2ccccc2)c1=O	1.2	-0.27
COc1ccc(-c2cc(C(=O)N3CCCC3)no2)cc1	1.83	0.17
CNC(=O)C1=C(C)NC(=S)NC1c1cccs1 (stereo not given)	1.3	-1.17
NC(=O)C1CCN(C(=O)CN(C2CCCCC2)S(=O)(=O)c2ccc(F)cc2)CC1	1.69	-0.66
COC(=O)CCCC1=CC2=CC(=O)C(C)(OC(=O)c3cccs3)C(=O)C2=CN1CCc1ccccn1 (stereo not given)	0.41	-0.14
O=C(NNc1nc(-c2ccccc2)cs1)c1ccc(F)cc1	2.98	-1.14
CCn1nnc2cc(C(=O)Nc3cc(OC)cc(OC)c3)ccc21	0.06	1.41
Cc1nc(N)sc1-c1csc(N(C)c2ccc(O)cc2)n1	1.03	-1.3
CC(=O)c1ccc(NC(=O)C2CC(=O)N(Cc3ccccc3)C2)cc1 (stereo not given)	0.61	0.64
CCOC(=O)c1ccc(N2C(=O)CC(SCC(N)C(=O)OCC)C2=O)cc1 (stereo not given)	0.95	0.55
CN=C(Cc1ccccc1)C1=C(O)CC(C)(C)CC1=O	0.43	0.68
Cc1nn(-c2ccccc2)c(Cl)c1/C=N/NC(=O)CNC(=O)c1ccccc1Cl	1.04	0.05
COc1ccc([N+](=O)[O-])cc1NC(=O)CSc1nc(C)c(C)c(C)n1	1.02	1.51
NS(=O)(=O)c1ccc(NC(=O)CSc2ncn[nH]2)cc1	0.12	-0.58
COc1ccc(CSc2n[nH]c(C)n2)cc1Br	0.09	-1.59
Cc1ccc(N2C(=O)N(CC(=O)Nc3c(C)cc(C)cc3Cl)C(=O)C2C)cc1 (stereo not given)	0.39	2.15
CC1(c2nnc(-c3ccc(Cl)cc3)o2)CC(c2ccc(Cl)cc2)=NO1 (stereo not given)	0.03	-1.15
CCc1nc(SCc2ccc(OC)cc2)n[nH]1	1.12	1.15
Cc1ccccc1OCCSc1nc2ncnc(N)c2[nH]1	0.1	-0.91
Cn1c(-c2ccc3c(c2)OCO3)cnc1NCc1ccccc1Cl	0.69	0.51
CCCNC(=O)c1cc2c3ccccc3n(C)c2s1	0.05	-1.03
CCSc1nc2c(sc3ccccc32)c(=O)n1C(C)C	6.03*	1.15*
CN1CCN(NC(=O)c2cc(S(=O)(=O)Nc3ccc(Cl)cc3)ccc2Cl)CC1	1.16	0.04
O=C(COC(=O)c1cc(Br)ccc1O)Nc1cccnc1Cl	0.51	-1.18
NC(N)=Nc1nc2ccc(Cl)cc2c(=O)[nH]1	0.8	-0.17
COC1(c2ccccc2)NC(=S)NN=C1c1ccccc1 (stereo not given)	1.74	-0.73
Cc1cccc(C)c1NC(=O)C1CCCN1C(=O)NCc1ccccc1 (stereo not given)	0.62	0.02

6 compounds from above, ordered by SMILES length, highest first:
SMILES	KCNQ2 pot	KCNQ2 pot baseline
Cc1ccc(N2C(=O)N(CC(=O)Nc3c(C)cc(C)cc3Cl)C(=O)C2C)cc1 (stereo not given)	0.39	2.15
O=C(COC(=O)c1cc(Br)ccc1O)Nc1cccnc1Cl	0.51	-1.18
CCSc1nc2c(sc3ccccc32)c(=O)n1C(C)C	6.03*	1.15*
Cc1ccccc1OCCSc1nc2ncnc(N)c2[nH]1	0.1	-0.91
CCCNC(=O)c1cc2c3ccccc3n(C)c2s1	0.05	-1.03
CCc1nc(SCc2ccc(OC)cc2)n[nH]1	1.12	1.15

Additional entries follow:
SMILES	KCNQ2 pot	KCNQ2 pot baseline
Cc1ccc(S(=O)(=O)N2CCCC2)s1	0.11	0.77
CCOc1cccc(NC(=O)C2CC(=O)N(C)C(=Nc3ccccc3)S2)c1 (stereo not given)	0.08	0.43
CC(=O)Nc1ccc(NC(=O)CSc2nc3c(=O)n(C)c(=O)n(C)c3n2C)cc1	0.11	-0.13
COc1cccc(S(=O)(=O)Nc2cccc(C(=O)N3CCOCC3)c2)c1	0.88	-2.27
CCOC(=O)c1ccc(N2C(=O)CC(N3CCCC(C)C3)C2=O)cc1 (stereo not given)	1.14	-0.21
CCOc1ccccc1N1C(=O)c2ccc(C(=O)O)cc2C1=O	0.35	-0.21
O=C(O)CC/C(=C\c1ccccc1[N+](=O)[O-])c1nc2ccccc2s1	0.09	-1.83
Cc1cccc(C)c1NC(=O)Cn1nnc(-c2ccc(CN3CCC(C)CC3)cc2)n1	0.25	0.03
Fc1ccccc1CNc1ccc(Cl)cc1	0.09	2.02
Cc1cc(C)n2nc(C(=O)OC(C)C(=O)c3cc(C)c(C)cc3C)nc2n1 (stereo not given)	0.77	-1.65
CNc1nc(-c2ccccn2)nnc1-c1ccccc1	1.67	0.03
Cn1nccc1C(=O)Nc1cccc(S(=O)(=O)N2CCOCC2)c1	1.2	-2.11

High-throughput results deposited in PubChem BioAssay by Johns Hopkins Ion Channel Center.

Only part of the results is shown. The share of hits here may be higher or lower than overall.
